# High-throughput results as filed in PubChem.
# Vaccinia stage: blocks a specific stage of Vaccinia orthopoxvirus infection, primary screen, cell-based, single point | Vaccinia-infected cells, mCherry/Venus stage reporter fluorescence; hits give low values; some inactives read as strong as hits | activity change (mCherry), % (concentration not given with the values) | hit rate 0.01% among 89,000;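 active means mCherry past -33% and 40 or more points under the early reporter, replicates agreeing; inconclusive means past -33% without that gap or agreement; tested in A549 cells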;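 further: scaled between vehicle wells and reference inhibitor wells; 23 nL library stock went into each well; one replicate is shown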
# Vaccinia stage Venus: further read-out of Vaccinia stage, marked with its call; activity change (Venus), %; measured here: Venus reporter, other viral stage;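 negative = less Venus signal; first of two replicates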
# * marks the source's active call; other numbers are inactive results; u = inconclusive; x = no result given; & = joins results of further samples.
SMILES,Vaccinia stage,Vaccinia stage Venus
COc1cccc(S(=O)(=O)N(C)C[C@@H]2Oc3cc(C4=CCCCC4)ccc3S(=O)(=O)N([C@@H](C)CO)C[C@H]2C)c1,u,x
C[C@@H]1CN([C@@H](C)CO)C(=O)Cc2cc(NC(=O)Nc3cccc4ccccc34)ccc2O[C@H]1CN(C)Cc1ccc2c(c1)OCO2,-13,-9
O=C1CNC[C@H]2[C@H](c3ccc(C4=CCCC4)cc3)[C@@H](CO)N12,4,5
Cc1noc(C)c1NC(=O)N(C)C[C@H]1Oc2c(NS(=O)(=O)c3cccs3)cccc2C(=O)N([C@@H](C)CO)C[C@H]1C,11,11
Cc1noc(C)c1NC(=O)Nc1ccc2c(c1)CC(=O)N([C@@H](C)CO)C[C@H](C)[C@H](CN(C)C(=O)Nc1ccccc1)O2,25,31
C[C@H](CO)N1C[C@H](C)[C@H](CN(C)C(=O)Nc2ccc3c(c2)OCO3)OCCCC[C@H](C)Oc2ccc(NS(=O)(=O)c3cn(C)cn3)cc2C1=O,16,10
O=C(Nc1ccc2c(c1)[C@H]1C[C@H](CC(=O)N3CCOCC3)O[C@@H](CO)[C@H]1O2)Nc1ccccc1F,23,9
C[C@@H]1CN([C@@H](C)CO)S(=O)(=O)c2ccc(-c3ccccc3)cc2O[C@H]1CN(C)S(C)(=O)=O,-28,-23
C[C@@H]1CCCCO[C@H](CN(C)Cc2ccc(C(F)(F)F)cc2)[C@H](C)CN([C@@H](C)CO)C(=O)c2cc(NC(=O)Nc3ccc4c(c3)OCO4)ccc2O1,10,-4
COCC(=O)Nc1ccc2c(c1)C(=O)N(C)C[C@H](OC)[C@H](C)CN(C(=O)NC(C)C)[C@@H](C)CO2,0,-2
CCNC(=O)[C@@H]1[C@@H](CO)[C@@H]2Cn3c(ccc(/C=C/c4ccccc4)c3=O)[C@@H]2N1C(=O)C1CC1,5,-5
CCCNC(=O)C[C@@H]1CC[C@H]2[C@H](COc3ccc(NC(=O)CCC)cc3C(=O)N2C)O1,u,x
CN(C)CC#Cc1ccc([C@@H]2[C@@H](CO)N3C(=O)CN(C(=O)Cc4ccccc4)C[C@@H]23)cc1,17,4
C[C@@H]1CN([C@@H](C)CO)C(=O)Cc2cc(NC(=O)CCCCCC(=O)Nc3ccccc3N)ccc2O[C@@H]1CN(C)Cc1ccc(C(F)(F)F)cc1,u,x
C[C@@H]1CN([C@@H](C)CO)C(=O)Cc2cc(NC(=O)CCC(F)(F)F)ccc2O[C@@H]1CN(C)C(=O)Nc1ccc2c(c1)OCO2,11,12
COCC(=O)Nc1ccc2c(c1)C(=O)N(C)C[C@@H](OC)[C@@H](C)CN(C(=O)c1ccncc1)[C@H](C)CO2,4,8
O=C(C1=C[C@H](c2ccc(Br)cc2)C[C@H](OCc2ccc(CO)cc2)O1)N1CCCC1,3,1
C[C@H]1CN([C@@H](C)CO)S(=O)(=O)c2ccc(-c3ccccc3)cc2O[C@H]1CN(C)Cc1cccc(F)c1,u,x
O=C(C[C@H]1CC[C@H]2[C@@H](COC[C@@H](O)CN2C(=O)C2CCOCC2)O1)NCc1ccncc1,10,5
Cc1noc(C)c1S(=O)(=O)N(C)C[C@H]1OCCCC[C@@H](C)Oc2ccc(NC(=O)Nc3ccc(C(F)(F)F)cc3)cc2C(=O)N([C@H](C)CO)C[C@@H]1C,2,2
C#CCNC(=O)C1=C[C@@H](c2ccc(C(F)(F)F)cc2)C[C@@H](OCc2ccc(CO)cc2)O1,-15,0
C[C@@H]1CN([C@@H](C)CO)C(=O)Cc2cc(NS(=O)(=O)c3ccc(Cl)cc3)ccc2O[C@@H]1CN(C)Cc1ccccc1,-21,-10
C[C@@H]1CN([C@@H](C)CO)C(=O)c2cc(C#CCC3CCCC3)cnc2O[C@H]1CN(C)C(=O)CN(C)C,-17,-11
COc1ccccc1C(=O)Nc1ccc2c(c1)C(=O)N(C)C[C@@H](OC)[C@@H](C)CN(C(C)=O)[C@@H](C)CO2,-2,-1
C[C@@H]1CCCCO[C@H](CN(C)Cc2ccc(C(F)(F)F)cc2)[C@@H](C)CN([C@@H](C)CO)C(=O)c2cc(N(C)C)ccc2O1,-5,-8

# Continued.
SMILES,Vaccinia stage,Vaccinia stage Venus
C/C=C/c1cnc2c(c1)C(=O)N([C@@H](C)CO)C[C@@H](C)[C@@H](CN(C)C(=O)C1CCCCC1)O2,11,14
COCC(=O)Nc1ccc2c(c1)OC[C@H](C)N(Cc1ccccn1)C[C@H](C)[C@H](OC)CN(C)C2=O,9,1
CO[C@H](CN(C)C(=O)C1CCOCC1)[C@H](C)CN([C@@H](C)CO)S(=O)(=O)c1ccccc1,9,12
O=C(Cc1ccccn1)N[C@@H]1CC[C@H](CCn2cc(-c3ccccc3)nn2)O[C@H]1CO,0,2
CCN1[C@@H]2Cn3c(ccc(-c4cccc(F)c4)c3=O)[C@H]1[C@@H](C(=O)NCC1CC1)[C@@H]2CO,9,7
CO[C@@H]1CN(C)C(=O)c2cc(NS(C)(=O)=O)ccc2OC[C@@H](C)N(C(=O)C2CCOCC2)C[C@@H]1C,11,10
C[C@H](CO)N1C[C@H](C)[C@@H](CN(C)C(=O)Nc2ccc3c(c2)OCO3)Oc2ncc(-c3cccnc3)cc2C1=O,10,4
C[C@H](CO)N1C[C@H](C)[C@H](CN(C)Cc2ccccc2)Oc2cc(C#CC(C)(C)O)ccc2S1(=O)=O,2,-6
CO[C@H]1CN(C)C(=O)c2ccc(NS(=O)(=O)c3ccccc3C)cc2OC[C@@H](C)NC[C@@H]1C,8,-1
CC(=O)N[C@@H]1CC[C@H](CCNC(=O)Nc2ccc(C(F)(F)F)cc2)O[C@H]1CO,-14,0
O=C(NCCN1CCOCC1)[C@@]1(CCS(=O)(=O)c2ccccc2)N=C(c2ccc(OCCCO)cc2)O[C@H]1c1ccccc1,-15,-16
C[C@H]1CCCCO[C@@H](CN(C)Cc2ccc(C(F)(F)F)cc2)[C@@H](C)CN([C@@H](C)CO)C(=O)c2cc(NS(=O)(=O)c3cn(C)cn3)ccc2O1,u,x
C[C@H](CO)N1C[C@H](C)[C@H](CN(C)Cc2ccc(Cl)c(Cl)c2)OCc2ccccc2-c2c(n(C)c3ccccc23)C1=O,u,x
CCCN1C[C@H](C)[C@@H](OC)CN(C)C(=O)c2ccc(NC(=O)C3CCOCC3)cc2OC[C@H]1C,5,1
COc1ccc(S(=O)(=O)Nc2ccc3c(c2)[C@H]2C[C@@H](CC(=O)NCC4CC4)O[C@@H](CO)[C@H]2O3)cc1,6,10
C[C@@H]1CN([C@H](C)CO)C(=O)c2cc(NS(=O)(=O)c3ccccc3)ccc2O[C@@H](C)CCCCO[C@@H]1CN(C)C(=O)Cc1ccccc1,-27,-26
O=C(C[C@H]1CC[C@H]2[C@@H](COC[C@@H](O)CN2Cc2ccc(Oc3ccccc3)cc2)O1)N1CCOCC1,-22,-24
CCNC(=O)Nc1ccc2c(c1)C(=O)N(C)[C@H]1CC[C@@H](CC(=O)Nc3ccccc3)O[C@@H]1CO2,3,5
COc1ccc2c3c(n(C)c2c1)[C@H](CO)N(CC1CC1)CC31CN(C(=O)c2cccc(F)c2)C1,-6,-1
CCS(=O)(=O)N[C@H]1C=C[C@@H](CC(=O)N2CCCCC2)O[C@H]1CO,4,12
COc1ccccc1C#Cc1ccc([C@@H]2[C@H](CO)N3CCCCN(C(=O)C4CC4)C[C@@H]23)cc1,u,x
COCC(=O)N1[C@H](CO)[C@@H](c2ccccc2)[C@@H]1CN(C)C(=O)c1ccncc1,7,9
C[C@H](CO)N1C[C@H](C)[C@H](CN(C)Cc2ccc(C(=O)O)cc2)OCCCC[C@H](C)Oc2ccc(NC(=O)Nc3cccc4ccccc34)cc2C1=O,13,6
COc1ccc2c3c([nH]c2c1)[C@H](CO)NCC31CN(C(=O)Nc2ccc3c(c2)OCO3)C1,5,0
CN(C)CC(=O)N[C@H]1CC[C@@H](CCNC(=O)C2CC2)O[C@H]1CO,5,2

# Further compounds:
SMILES,Vaccinia stage,Vaccinia stage Venus
CN(C)C(=O)C[C@@H]1CC[C@@H]2[C@H](COC[C@H](O)CN2CC2CCCC2)O1,5,-2
O=C1CSCN1c1ccccc1,18,14
CO[C@H]1CN(C)C(=O)c2ccc(NC(=O)C3CCOCC3)cc2OC[C@@H](C)N(C(C)=O)C[C@H]1C,7,-3
O=C(C[C@@H]1C[C@@H]2c3cc(NS(=O)(=O)c4ccc(F)cc4)ccc3O[C@@H]2[C@H](CO)O1)NC1CCCC1,2,0
CC(C)(C)[C@@H]1C=C(C(=O)N2CCCC2)O[C@H](OCc2ccc(CO)cc2)C1,10,-4
CN(C)CC(=O)Nc1ccc2c(c1)[C@@H]1C[C@H](CC(=O)NCC3CC3)O[C@@H](CO)[C@@H]1O2,15,17
C[C@H](CO)N1C[C@H](C)[C@H](CN(C)C(=O)C2CCCCC2)OCCCC[C@H](C)Oc2ccc(N(C)C)cc2C1=O,-21,-12
C[C@@H]1CN([C@@H](C)CO)C(=O)c2cc(C#CC3CC3)cnc2O[C@H]1CN(C)C(=O)CC1CC1,16,10
C[C@H](CO)N1C[C@H](C)[C@H](CN(C)C(=O)c2ccncc2)Oc2cc(C3=CCCC3)ccc2S1(=O)=O,22,19
CN(C)C(=O)c1ccc(-c2ccc([C@H]3[C@@H](C#N)N(S(C)(=O)=O)[C@H]3CO)cc2)cc1,1,-1
C[C@@H]1CCCCO[C@@H](CN(C)C(=O)CCC(F)(F)F)[C@@H](C)CN([C@H](C)CO)C(=O)c2cc(N(C)C)ccc2O1,12&7,6&0
C[C@@H]1CN([C@@H](C)CO)C(=O)c2cc(NC(=O)c3ccncc3)ccc2O[C@@H](C)CCCCO[C@@H]1CN(C)S(=O)(=O)c1ccccc1,16,14
CO[C@H]1CN(C)C(=O)c2cc(NC(=O)C3CCC3)ccc2OC[C@H](C)N(Cc2cccnc2)C[C@H]1C,1,-5
COc1ccc(CN(C)C[C@@H]2Oc3c(NS(=O)(=O)c4ccccc4)cccc3C(=O)N([C@@H](C)CO)C[C@@H]2C)cc1,2,3
CCCNC(=O)N(C)C[C@@H]1Oc2cc(C#Cc3cccc(F)c3)ccc2S(=O)(=O)N([C@@H](C)CO)C[C@H]1C,u,x
C[C@@H]1CN([C@@H](C)CO)C(=O)Cc2cc(NC(=O)Cn3cnnn3)ccc2O[C@H]1CN(C)Cc1ccc(C(=O)O)cc1,-1,2
C[C@H]1CN([C@@H](C)CO)C(=O)Cc2cc(NC(=O)NC3CCCCC3)ccc2O[C@H]1CN(C)CC1CC1,5,7
COc1ccc(NC(=O)Nc2ccc3c(c2)CC(=O)N([C@@H](C)CO)C[C@H](C)[C@H](CN(C)S(=O)(=O)c2ccc(Cl)cc2)O3)cc1,u,x
COc1ccccc1-c1cnc2c(c1)C(=O)N([C@@H](C)CO)C[C@H](C)[C@@H](CN(C)C(=O)c1cccnc1)O2,7,11
O=C(C[C@H]1C[C@@H]2c3cc(NC(=O)CC4CC4)ccc3O[C@@H]2[C@@H](CO)O1)NCc1cccnc1,1,1
C[C@H]1CCCCO[C@@H](CN(C)C(=O)Nc2ccc3c(c2)OCO3)[C@@H](C)CN([C@@H](C)CO)C(=O)c2cc(NC(=O)c3ccccc3)ccc2O1,u,x
C[C@H]1CCCCO[C@H](CN(C)C)[C@@H](C)CN([C@@H](C)CO)C(=O)c2cc(NS(=O)(=O)c3cn(C)cn3)ccc2O1,13,5
C[C@H]1CN([C@@H](C)CO)C(=O)CCCn2cc(nn2)CO[C@H]1CN(C)C(=O)NC1CCCCC1,10,8
CO[C@H]1CN(C)C(=O)c2cc(NC(=O)Nc3cccc(F)c3)ccc2OC[C@@H](C)N(C(=O)Nc2c(C)noc2C)C[C@@H]1C,7,7
Cc1noc(C)c1S(=O)(=O)Nc1cccc2c1O[C@H](CN(C)C(=O)Nc1ccc3c(c1)OCO3)[C@H](C)CN([C@H](C)CO)C2=O,-16,-9
O=C(NC1Cc2ccccc2C1)[C@H]1[C@H](CO)[C@H]2Cn3c(cccc3=O)[C@@H]1N2C(=O)CC1CC1,12,3
CCC(=O)N1[C@@H]2CN(C(=O)c3cccc(OC)c3)c3ccccc3[C@@H]2[C@@H]1CO,8,11
CCC(=O)Nc1ccc2c(c1)C(=O)N(C)[C@H]1CC[C@@H](CC(=O)NCCc3ccccc3)O[C@@H]1CO2,6,-6
C[C@H](CO)N1C[C@H](C)[C@H](CN(C)CC2CCCCC2)Oc2ccc(NC(=O)CCC(F)(F)F)cc2C1=O,-12,-12

# Structural class, the entries above containing an aryl methoxy group (ten)
SMILES,Vaccinia stage,Vaccinia stage Venus
COc1cccc(S(=O)(=O)N(C)C[C@@H]2Oc3cc(C4=CCCCC4)ccc3S(=O)(=O)N([C@@H](C)CO)C[C@H]2C)c1,u,x
COc1ccccc1C(=O)Nc1ccc2c(c1)C(=O)N(C)C[C@@H](OC)[C@@H](C)CN(C(C)=O)[C@@H](C)CO2,-2,-1
COc1ccc(S(=O)(=O)Nc2ccc3c(c2)[C@H]2C[C@@H](CC(=O)NCC4CC4)O[C@@H](CO)[C@H]2O3)cc1,6,10
COc1ccc2c3c(n(C)c2c1)[C@H](CO)N(CC1CC1)CC31CN(C(=O)c2cccc(F)c2)C1,-6,-1
COc1ccccc1C#Cc1ccc([C@@H]2[C@H](CO)N3CCCCN(C(=O)C4CC4)C[C@@H]23)cc1,u,x
COc1ccc2c3c([nH]c2c1)[C@H](CO)NCC31CN(C(=O)Nc2ccc3c(c2)OCO3)C1,5,0
COc1ccc(CN(C)C[C@@H]2Oc3c(NS(=O)(=O)c4ccccc4)cccc3C(=O)N([C@@H](C)CO)C[C@@H]2C)cc1,2,3
COc1ccc(NC(=O)Nc2ccc3c(c2)CC(=O)N([C@@H](C)CO)C[C@H](C)[C@H](CN(C)S(=O)(=O)c2ccc(Cl)cc2)O3)cc1,u,x
COc1ccccc1-c1cnc2c(c1)C(=O)N([C@@H](C)CO)C[C@H](C)[C@@H](CN(C)C(=O)c1cccnc1)O2,7,11
CCC(=O)N1[C@@H]2CN(C(=O)c3cccc(OC)c3)c3ccccc3[C@@H]2[C@@H]1CO,8,11

# Only part of the results is shown, so the mix of outcomes need not match the whole.
